# Vaccinia mCherry = inhibitors of vaccinia virus infection (mCherry reporter signal); AID 720579; Vaccinia virus mCherry reporter infection, fluorescence; about a quarter of the inactives have no number; 0.63% of 310,000 active; Potency, µM (series often up to 36.5 µM), for inactives: at the highest dose activity change, negative = inhibition, hits mostly inhibitors; active = well fitted inhibition curve with a large enough effect; inconclusive = small, poorly fitted or top-dose-only effect; inactive = no such curve, though single readings can be large or run the other way; tested in A549 cells; further: nearly all actives have a fitted effect of over 35% in size; inactives centre near -10
# Vaccinia Venus = vaccinia inhibition (Venus reporter). 0.46% of 330,000 active. AID 720580. Potency, µM (doses to about 36.5 µM), without a hit: at the highest dose activity change, negative = inhibition, hits mostly inhibitors. Vaccinia virus Venus reporter expression, fluorescence; active means well fitted inhibition curve with a large enough effect; inconclusive means small, poorly fitted or top-dose-only effect; inactive means no such curve, though single readings can be large or run the other way; tested in A549 cells; further: nearly all actives have a fitted effect of over 30% in size; inactives centre near -10
# Starred values were filed as active, the others as inactive; i = inactive; u = inconclusive; x = no result given; & = joins results of further samples; [ ] = remark or other dose. On the % scale 0 is the no-effect control and ±100 the full control effect; potency means the concentration at half of the fitted maximal effect. Outcome played no part in choosing rows; about 0.82% have a hit in one of these screens.
SMILES,Vaccinia mCherry,Vaccinia Venus
CC(C(=O)NCC1CCCCC1)N(C)Cc1ccc(Br)cc1 (configuration not stated),-21%,-6%
COc1ccc(C(=O)OCC(=O)c2ccc(F)cc2)cc1OC,0%,-18%
CCOc1ccc(S(=O)(=O)NCc2ccc(OC)cc2)c2cccnc12,i,-14%
COc1cc(SC)ccc1C(=O)NCC1CCCCC1,38%[activator],-11%
CC1=C(C(=O)OC(C)C)C(c2cccc(F)c2)n2ncnc2N1 (configuration not stated),-24%,-8%
CCNC(=S)N(CCc1ccc(S(N)(=O)=O)cc1)C1CC(=O)N(c2ccccc2)C1=O (configuration not stated),-1%,-16%
COc1ccc2oc(C(=O)OCC(=O)N(CCC#N)c3ccccc3)c(C)c2c1,-2%,-21%
CCN(CC)C(=O)c1ccc(NC(=O)c2cccc(S(=O)(=O)N3CCN(C)CC3)c2)cc1,-12%,-13%
CCn1nc(C)cc1C(=O)N1CCCC(N2CCN(Cc3ccc4c(c3)OCO4)CC2)C1 (configuration not stated),-3%,-10%
COc1ccc(CNc2oc(/C=C/c3cccc(OC)c3)nc2C#N)cc1,-13%,7%
c1cc(N2CCCC2)ccc1C(c1nnnn1C1CCCCC1)N1CCOCC1 (configuration not stated),-10%,-11%
CCS(=O)(=O)N1CCCC(C(=O)N2CCC3(CC2)OCCO3)C1 (configuration not stated),-23%,-25%
COCCN1C(=O)CSCC1(C)C(=O)Nc1c(C)cccc1C (configuration not stated),i,-5%
C=CCn1c(C)nc2c(cnn2-c2ccccc2)c1=O,7%,6%
O=C(OCC(=O)N1CCCCC1)c1cccc(NS(=O)(=O)c2ccccc2)c1,i,-12%
CCc1ccc(C(=O)N2CCCN(C)CC2)s1,i,-25%
Cc1ccc(-c2csc3nc(SCC(N)=O)n(Cc4ccccc4)c(=O)c23)cc1,-9%,u
Oc1ccc(Cl)cc1C1=Nc2ccccc2N=C(c2cccc(Br)c2)C1,-19%,-7%
CCOc1ccc2nc(NC(=O)CSc3nc(SC)ns3)sc2c1,u,-13%
Cc1ccc(/C=C2\SC(=S)N(CCC(=O)Nc3cccnc3)C2=O)cc1,-11%,-6%
CC1=NN(C(N)=S)C(=O)C1N=Nc1ccc(Cl)cc1 (configuration not stated),-18%,-16%
Cc1cc(C(F)(F)F)c(C#N)c(SCC(=O)Nc2nc3ccccc3s2)n1,-7%,22%
COc1ccccc1C(=O)NC(=O)COc1cc(Cl)ccc1Cl,-3%,-13%
CCOc1ccccc1C(=O)Nc1ccc(S(=O)(=O)Nc2nccc(C)n2)cc1,0%,-7%
Cc1ccc2c(c1N)C(=O)c1ccccc1C2=O,-14%,53%[activator]

# The final 7 compounds of the part above open the next one:
SMILES,Vaccinia mCherry,Vaccinia Venus
CCOc1ccc2nc(NC(=O)CSc3nc(SC)ns3)sc2c1,u,-13%
Cc1ccc(/C=C2\SC(=S)N(CCC(=O)Nc3cccnc3)C2=O)cc1,-11%,-6%
CC1=NN(C(N)=S)C(=O)C1N=Nc1ccc(Cl)cc1 (configuration not stated),-18%,-16%
Cc1cc(C(F)(F)F)c(C#N)c(SCC(=O)Nc2nc3ccccc3s2)n1,-7%,22%
COc1ccccc1C(=O)NC(=O)COc1cc(Cl)ccc1Cl,-3%,-13%
CCOc1ccccc1C(=O)Nc1ccc(S(=O)(=O)Nc2nccc(C)n2)cc1,0%,-7%
Cc1ccc2c(c1N)C(=O)c1ccccc1C2=O,-14%,53%[activator]
O=C(COC(=O)c1cccc(O)c1)NC(=O)Cc1ccccc1,-20%,-5%
CCCCn1c(N)c(N(CCC(C)C)C(=O)C2CC(=O)N(c3ccccc3OCC)C2)c(=O)[nH]c1=O (configuration not stated),-20%,-13%
Nc1ccc(S(=O)(=O)C(F)(F)F)cc1N,-25%,-8%
O=C(ONC(=O)C1CCCCC1C(=O)NOC(=O)c1ccccc1)c1ccccc1 (configuration not stated),-16%,-19%
CCOC(=O)c1cc(S(=O)(=O)Nc2ccc(OC(F)(F)F)cc2)[nH]n1,8%,2%
CCOC(=O)N1CCN(C(=O)C(=O)c2cn(CC(=O)N3CCCCCC3)c3ccccc23)CC1,-10%,-17%
O=C(CCC(=O)N1CCCC(Nc2ccccc2)C1)c1ccc(F)cc1 (configuration not stated),u,-13%
CC(CNC(=O)c1cccc(Br)c1)n1cncn1 (configuration not stated),-2%,-10%
CCCN1CCC(=O)N([C@H](CSc2ccc(OC)cc2)c2ccccc2)CC1,-9%,-8%
O=C1NC(=O)C(Cc2cccs2)C(=O)N1,-3%,3%
CC(=O)c1sc(N/N=C/c2cccc(O)c2)nc1C,-16%,-20%
CCN(CC)c1ccc(NC(=O)CCS(=O)(=O)c2cccc3nsnc23)c(C)c1,-13%[7.34 µM],0%
CCN1C(=O)[C@@H]2[C@@H](c3ccc(-c4ccc5c(c4)OCO5)c(OC)c3)N3CCCC[C@@]3(C(=O)OC)[C@@H]2C1=O,i,-17%
O=C(CNC(=O)c1ccccc1Br)N/N=C\c1cc([N+](=O)[O-])cc(Br)c1O,u,0%
O=C(Cn1cccc1)NC1CCCCCC1,-2%,-16%
COc1ccc2c(=O)cc(-c3ccncc3)oc2c1OC,u,u
CCOC(=O)C(NCc1ccc2c(c1)OCO2)(NC(=O)c1ccccc1)C(F)(F)F (configuration not stated),-14%,-12%
Cc1cccc(C(=O)N(C)c2nnc(-c3ccncc3)s2)c1,-4%,-10%
CC(C)(C)NC(=S)/N=C(\N)N[N+](=O)[O-],i,-3%
CC(C)c1ccc(NC(=O)CN2C(=O)CN=C(c3ccccc3)c3ccccc32)cc1,-4%,-9%
CC1=C2[C@H]3OC(=O)[C@@H](C)[C@@H]3CC[C@@]2(C)C=CC1=O,1%,-3%
COc1ccc(N/C=C2\C(=O)c3c(sc(C)c3C)N(C)S2(=O)=O)cc1,-11%,-2%
CCc1nnc(SCC(=O)Nc2ccccc2Cl)nc1CC,-10%&-21%,-9%&-11%
COc1cccc(/C=N/Nc2ncnc3scc(-c4ccccc4)c23)c1O,2µM*,u
CC1=NN(c2ccccc2)C(=O)C1C=Nc1ccccc1O (configuration not stated),u,-26%

# (next part)
SMILES,Vaccinia mCherry,Vaccinia Venus
CC(C)Oc1ccc(CN2CCC2(C)C(=O)NCc2ccc(C(F)(F)F)cc2)cc1 (configuration not stated),9%,0%
Cc1ccc(OCC(=O)Nc2sc3c(c2C(N)=O)CCCC3)c(C(C)(C)C)c1,-7%,-24%
O=C(NCCc1ccc2c(c1)OCCO2)c1cccc(F)c1,-19%,-22%
O=C(COC(=O)c1c2c(nc3ccccc13)CCCC2)c1ccc(Br)s1,-4%,-17%
N#Cc1ccc(NC(=S)/N=C(\N)c2ccccc2)cc1,-2%,-12%
CCN(c1ccccc1)S(=O)(=O)c1cc2c(cc1C)NC(=O)CO2,-17%,-20%
O=C(CCOc1ccccc1)Nc1ccnn1C1CCN(Cc2ccccc2)CC1,u,u
COc1ccc(C(CC(=O)Nc2cc(Cl)c(OC)cc2OC)N2Cc3ccccc3C2=O)cc1 (configuration not stated),-9%,-7%
CCOC(=O)c1cc2c(C)n(-c3ccc(OCC)cc3)c(C)c2cc(C(=O)OCC)c1=O,-6%,-6%
CC(C)Cc1nccs1,i,4%
COCCCN1C(=O)C(=O)/C(=C(/O)c2ccccc2)C1c1ccc2c(c1)OCO2 (configuration not stated),-6%,-1%
Cc1ccc(Nc2ccccc2N)cc1,-12%,-2%
CC(C)c1ccc(CNCCSc2nnnn2-c2ccccc2)cc1,2%,-4%
CN1/C(=c2/s/c(=C3/C(=O)N(c4ccccc4)NC3=Nc3ccccc3)n(C)c2=O)C(C)(C)c2ccccc21,x,-19%
C=CCSC1=C(C#N)C(c2ccc(C(C)C)cc2)CC(=O)N1 (configuration not stated),-16%,-29%
Cc1noc(NS(=O)(=O)c2ccc(NC(=O)C34CCC(CC3)C4)cc2)c1C,i,-7%
COc1ccc(N2CCN(CC(=O)Nc3ccc(SC(F)F)cc3)CC2)cc1,u,-7%
Cc1ccccc1-n1ncc2c1CC(C)(C)CC2NC(=O)CCN1Cc2ccccc2C1=O (configuration not stated),-6%,3%
O=c1[nH]c2nc(Br)[nH]c(=O)c2[nH]1,i,-4%
CCCCOc1ccc(-c2nnc(N)s2)cc1,i,-6%
CCCCNC(=O)N(O)C1N(CCCC)C(=O)N(CC(=O)OC)C1(C)C (configuration not stated),-8%,-9%
CCOc1cccc(/C(O)=C2/C(=O)C(=O)N(CCOC)C2c2ccc(C)o2)c1 (configuration not stated),-7%,-6%
CN(C)/C=C/C(=O)c1ccc(Cl)s1,u,-3%
CC(C)OCCCNC(=O)C(NC(=O)c1ccc(Cl)cc1)C(C)C (configuration not stated),-6%,-4%
Cc1cccc(Nc2nc(-c3ccccc3)c(C(=O)Nc3cccnc3)s2)c1,u,-25%

# (listing goes on)
SMILES,Vaccinia mCherry,Vaccinia Venus
O=C(Nn1c(-c2ccncc2)nc2ccccc2c1=O)c1ccc(Br)cc1,12%,7%
O=c1[nH]c(=O)n(Cc2ccc(F)cc2)c(O)c1C=Nc1ccc(Cl)cc1,-11%,-2%
COc1ccc(NC(=S)NNc2ccc(S(=O)(=O)Nc3ccccc3C(=O)O)cc2[N+](=O)[O-])cc1,-10%,-7%
CC(C)Cc1nnc(NS(=O)(=O)c2ccc(Cl)cc2)s1,i,-5%
COCC(=O)Nc1cccc(-c2nc3cccnc3s2)c1,-2%,5%
CCOC(=O)c1[nH]c2ccccc2c1NC(=O)c1ccc(C)c(C)c1,-11%,-5%
CCC(=O)N1CCc2cc(Br)cc(S(=O)(=O)N3CCC(C(=O)NCCCOC(C)C)CC3)c21,-13%,-22%&-12%
Cc1cc(C)c(NC(=O)C2CCCN(C(=O)c3cnn(-c4ccccc4)c3-n3cccc3)C2)c(C)c1 (configuration not stated),-28%,-26%
COc1cccc2c1NC(C(=O)O)C1CC=CC21 (configuration not stated),-4%,-10%
COc1ccc2[nH]cc(CCNC(=O)/C=C/[C@H]3O[C@@H](n4cc(C)c(=O)[nH]c4=O)C[C@@H]3O)c2c1,1%,-1%
Cc1cccc2cc(CN(Cc3cccnc3)C(=S)NCCCN(C)C)c(=O)[nH]c12,i,3%
Cc1cc(C)n2nc(/C(C#N)=C/c3ccccc3)c(C#N)c2n1,-11%,-9%
CCN(CC(=O)Nc1c(F)cccc1F)C(=O)CCOc1ccc(C)cc1,-7%,-25%
O=S1(=O)CC(O)C(N2CCCCC2)C1 (configuration not stated),x,-13%
COC(=O)c1cc(C(=O)OCC(=O)c2ccc3c(c2)NC(=O)CO3)cc([N+](=O)[O-])c1,-10%,-9%
NNC(=O)C1=NOC2COC3(CCN(c4ncccn4)CC3)OCC12 (configuration not stated),-17%,-9%
CCOC(=O)c1ccccc1NC(=O)/C=C/C(=O)O,i,-2%
Cc1ccc(CNC(=O)C2CCN(S(=O)(=O)c3cn(C)cn3)CC2)cc1,i,-11%
CCCNc1nc(N)nc(-c2cc(Cl)ccc2OC)n1,x,-12%
Cc1ccc(-n2ncc3c(=O)n(CC(=O)NC4CCCCC4)cnc32)cc1C,i,-17%
Cc1cc(C(=O)COC(=O)CC(NC(N)=O)c2ccc(Cl)cc2)c(C)n1C (configuration not stated),-8%,5%
CC(=O)c1c(O)cc2n(c1=O)-c1ccc(Cl)cc1C2(C)C,-2%,-15%
c1ccc(Cn2nnc(-c3ccccc3)n2)cc1,-15%,-8%
C=CCN1C(=O)/C(=C\c2ccc(C)cc2)N=C1SCC(=O)NCCC,x,7%
CCOc1ccc(CCNc2ccc3nnc(-c4ccccc4)n3n2)cc1OCC,-2%,-12%

# Exported with two lines to a compound: part of the list above.
# Values run as follows: Vaccinia mCherry | Vaccinia Venus
- COc1ccc2[nH]cc(CCNC(=O)/C=C/[C@H]3O[C@@H](n4cc(C)c(=O)[nH]c4=O)C[C@@H]3O)c2c1
    1% | -1%
- Cc1cc(C(=O)COC(=O)CC(NC(N)=O)c2ccc(Cl)cc2)c(C)n1C (configuration not stated)
    -8% | 5%
- O=C(Nn1c(-c2ccncc2)nc2ccccc2c1=O)c1ccc(Br)cc1
    12% | 7%

# Next part
SMILES,Vaccinia mCherry,Vaccinia Venus
COCCCN1CN=C(Nc2nc3ccccc3o2)NC1,-11%,10%
O=C1CSc2cc(Cl)ccc2N1,-9%,-6%
COc1ccc2c(c1OC)C(=O)N1c3ccccc3COC21 (configuration not stated),i,-7%
CCCC12CN3CC(C)(CN(C1)C3c1cccs1)C2=O (configuration not stated),-15%,-10%
O=C(Cc1ccccc1)Nc1ccc(N2CCOCC2)cc1,i,-16%
CCOCCCNC(=O)/C(C#N)=C/c1cc(C)c(O)c(C)c1,-13%,-25%
CCOc1ccc(S(=O)(=O)NCC(c2ccc(N(C)C)cc2)N2CCCC2)cc1 (configuration not stated),-19%,-12%
CSc1nc2sc3c(c2c2nncn12)CCC3,-4%,-22%
CCc1ccc2c(c1)cc(CN(C(=S)Nc1ccc(Cl)cc1)C1CC1)c1nnnn12,i,-2%
CCN(CC(=O)NC1CCS(=O)(=O)C1)c1nc(-c2cccnc2)nc2ccccc12 (configuration not stated),-11%,-6%
O=C(O)c1cc(-n2nnnc2SCc2ccccc2F)ccc1Cl,-12%,-17%
S=C1NCCN1CC1CCN(CCCC2CCCC2)CC1,i,-9%
NC(=O)Cc1ccc(Nc2nnc(-c3ccccc3)c3ccccc23)cc1,-8%,-12%
C=CCc1ccccc1OCCn1c(C2CC(=O)N(Cc3ccc(F)cc3)C2)nc2ccccc21 (configuration not stated),-23%,-29%

# Source: PubChem BioAssay
